gsp ag: gsp mutant agonism; gsp mutant cells, cAMP HTRF, 30 min; control for the full effect not named in the record; Potency, µM (highest dose often 76.9 µM), inactives show at the highest dose activation (cAMP increase), usual class: activators; 340,000 compounds, 0.13% hits; active = well fitted activation curve with a large enough effect; inconclusive = small, poorly fitted or top-dose-only effect, or another doubt; inactive = no such curve, though single readings can be large or run the other way; cell line not stated here;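 also: phosphodiesterase inhibitor Ro 20-1724 added with compounds to block cAMP breakdown; potency is read from the fitted curve at half-maximal effect; nearly all actives have a fitted effect of over 60% in size; about a fifth of the inactives were tested at one dose only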
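Cells stably selected in G418 were plated at 2000/well, grown 16-24 hr, then given compounds in DMSO with the PDE inhibitor […] (300 uM solution added) for 30 min at 37C; cAMP was read by HTRF.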
TRPML1 agonist: human mucolipin-1 channel agonism; TRPML1-expressing cells, Ca2+ dye fluorescence, FDSS; host cell line not named in the record; reference of the full effect not given here; activation, % (concentration not given with the values); 410,000 compounds, 0.12% hits; AID 624414; in the data active = activation above about 50%; inconclusive = about 30% to 50%; inactive = below about 30%; also: 0% is about no effect; the text of the record puts the active cut at 80%
Target sequence (Q9GZU1 whole entry, looked up): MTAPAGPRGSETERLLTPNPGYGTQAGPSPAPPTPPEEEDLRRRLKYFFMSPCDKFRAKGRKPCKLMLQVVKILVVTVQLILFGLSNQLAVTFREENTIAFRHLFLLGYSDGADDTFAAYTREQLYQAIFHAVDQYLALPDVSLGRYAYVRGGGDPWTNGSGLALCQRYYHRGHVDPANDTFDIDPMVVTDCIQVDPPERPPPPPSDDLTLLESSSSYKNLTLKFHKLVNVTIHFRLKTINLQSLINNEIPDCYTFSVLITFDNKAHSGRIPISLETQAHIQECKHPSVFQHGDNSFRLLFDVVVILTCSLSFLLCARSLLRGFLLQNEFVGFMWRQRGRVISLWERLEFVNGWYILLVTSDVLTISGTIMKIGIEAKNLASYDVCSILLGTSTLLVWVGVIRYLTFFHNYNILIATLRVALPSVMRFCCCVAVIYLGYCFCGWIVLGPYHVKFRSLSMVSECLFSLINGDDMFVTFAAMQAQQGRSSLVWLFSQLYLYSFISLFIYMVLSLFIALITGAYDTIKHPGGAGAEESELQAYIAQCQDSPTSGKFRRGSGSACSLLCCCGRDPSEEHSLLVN
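Tetracycline-induced TRPML1-DL cells are seeded and incubated overnight before loading with a no-wash Ca2+ dye and quencher. Agonist activity is taken from the 110 s fluorescence read following compound pin-transfer on an FDSS, before EC80 54-4 challenge.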
TRPML1 inh: blocks the human TRPML1 channel. Q9GZU1. TRPML1-inducible cells, Ca2+ dye fluorescence, FDSS; hits give low values; inhibition of EC80 agonist-evoked calcium signal. activity change, negative = inhibition, % (test concentration not listed). 390,000 compounds, 0.02% hits. AID 624415; in the data active means activity change below about -50%; inconclusive means about -30% to -50%; inactive means above about -30%;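 also: stimulus is agonist 54-4 at its EC80 concentration; % is scaled to controls: 0 for no effect and ±100 for the full control effect; compound concentration not given in the record; the text of the record puts the active cut at -80%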
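Tet-induced TRPML1-DL cells loaded with Ca8 no-wash calcium dye were read kinetically on FDSS. Compound addition was followed by EC80 agonist 54-4 (4 uM final); inhibition was read over 110 s.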
ClpP mod: qHTS Assay for Activators of ClpP; ATP-dependent Clp protease proteolytic subunit (Bacillus subtilis (strain 168)), P80244; purified B. subtilis ClpP, FRET peptide cleavage, 20 min; Potency, µM (series often up to 57.5 µM), for the others: at the highest dose activity change, negative = active; 340,000 compounds, 1.9% hits; AID 651965, 2013; active = well fitted falling curve with a large enough effect; inconclusive = small, poorly fitted or top-dose-only effect; inactive = no such curve, though single readings can be large or run the other way; also: potency is read from the fitted curve at half-maximal effect; the source files actives as falling curves though it sought activators and does not explain the sign; nearly all actives have a fitted effect of over 65% in size; many hits overshoot -100%
Target sequence (P80244 whole entry, looked up): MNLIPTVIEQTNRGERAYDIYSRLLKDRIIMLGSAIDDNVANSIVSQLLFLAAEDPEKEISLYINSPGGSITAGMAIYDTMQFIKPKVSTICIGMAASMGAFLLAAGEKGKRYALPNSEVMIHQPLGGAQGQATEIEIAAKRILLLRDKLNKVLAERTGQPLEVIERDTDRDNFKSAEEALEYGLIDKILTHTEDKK
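FRET quenching reversal measured ClpP activation: 10 microg/mL B. subtilis ClpP at pH 8 with the FRET-FV decapeptide, read at 430 nm after 320 nm excitation. The 20-min minus 0-min signal was scaled between DMSO/no-enzyme wells and ADEP (5.8 microM final).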
gsp antagonist: antagonizes gsp, the McCune-Albright syndrome mutation | gsp-mutant cells, cAMP HTRF, 30 min; control for the full effect not named in the record | 340,000 compounds, 0.4% hits | Potency, µM (highest dose often 76.9 µM), inactives show at the top dose activity change, negative = inhibition, hits mostly inhibitors; active = falling curve of any shape with a large fitted effect; inconclusive = falling curve, mostly with a smaller effect; inactive = flat or rising curve; cell line not stated here;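 also: intracellular cAMP measured with PDE inhibitor Ro 20-1724 present during compound exposure; potency is read from the fitted curve at half-maximal effect; % is scaled to controls: 0 for no effect and ±100 for the full control effect; nearly all actives have a fitted effect of over 65% in size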
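HTRF cAMP read-out (cAMP-d2 plus anti-cAMP antibody-K in lysis buffer, 30 min RT). Before lysis, cells are exposed to compounds with […] for 30 min at 37C in DPBS containing Ca/Mg, BSA and Tween 20.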
Menin-MLL FL inh: displaces fluorescein MLL peptide from human menin | Fluorescence polarization, fluorescein-MLL peptide displacement from menin | FP activity change, % at 61.4 µM | 290,000 tested, under 10 active | AID 1766; inconclusive = falling polarisation curve, or a change in total fluorescence; inactive = total fluorescence flat and polarisation flat or rising; no compound was filed as active; the % refers to the polarisation; negative = inhibition;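 also: % of control where 0% means no effect; inhibitors lower the polarisation; unlabelled MLL peptide was the positive control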
* marks the source's active call; other numbers are inactive results; ? = inconclusive; · = no result given; & = joins results of further samples; [ ] = another dose, or the depositor's remark.

SMILES	gsp ag	TRPML1 agonist	TRPML1 inh	ClpP mod	gsp antagonist	Menin-MLL FL inh
CC(=O)C1=C(C)NC(SCC(=O)c2ccc(Cl)cc2)=C(C#N)C1CC(C)C (stereo not drawn)	-93%[inhibitor]	0.0	55	25µM*	2%	5.2
CCC(=O)N1CCN(c2ccc(NC(=S)NC(=O)c3ccc(OC)c([N+](=O)[O-])c3)cc2)CC1	5%[15.4 µM]	-0.1	-1	·	·	1.7
COCCN(CC1CCCN(C2Cc3ccccc3C2)C1)C(=O)c1ccc(C(C)=O)cc1 (stereo not drawn)	-1%	0.5	8	·	1%	0.9
CCC(C)NC(=O)CN1C(=O)C(CC)Sc2ccccc21 (stereo not drawn)	4%	0.3	4	-1.7%	-17%	-0.5
CCCN(CCC)CC(C)(C)NS(=O)(=O)c1ccc(Cl)cc1	15%[15.4 µM]	1.7	2	·	9%	-1.1
COCC(=O)N(C)C[C@@H]1Oc2cc(Br)ccc2S(=O)(=O)N([C@H](C)CO)C[C@H]1C	-3%	0.3	12	-0.7%	·	·
O=c1ccncn1C1OC(CO)C(O)C1O (stereo not drawn)	18%	0.5	-4	-3.0%	1%	·
COc1cnc(-c2ccccn2)nc1N(C)C	-57%[inhibitor]	0.3	17	·	6%	5.2
COc1ccc(NC(=O)c2cccnc2C(=O)O)c(OC)c1	6%	1.7	21	-1.0%	1%	0.6
Cc1ccccc1C(=O)c1cccn1CC(=O)NC(C)c1ccc2c(c1)OCCO2 (stereo not drawn)	-1%[15.4 µM]	-0.4	7	·	·	16

Nothing new here: an excerpt of the list.
SMILES	gsp ag	TRPML1 agonist	TRPML1 inh	ClpP mod	gsp antagonist	Menin-MLL FL inh
CC(=O)C1=C(C)NC(SCC(=O)c2ccc(Cl)cc2)=C(C#N)C1CC(C)C (stereo not drawn)	-93%[inhibitor]	0.0	55	25µM*	2%	5.2
CCC(=O)N1CCN(c2ccc(NC(=S)NC(=O)c3ccc(OC)c([N+](=O)[O-])c3)cc2)CC1	5%[15.4 µM]	-0.1	-1	·	·	1.7
COCCN(CC1CCCN(C2Cc3ccccc3C2)C1)C(=O)c1ccc(C(C)=O)cc1 (stereo not drawn)	-1%	0.5	8	·	1%	0.9
CCC(C)NC(=O)CN1C(=O)C(CC)Sc2ccccc21 (stereo not drawn)	4%	0.3	4	-1.7%	-17%	-0.5
CCCN(CCC)CC(C)(C)NS(=O)(=O)c1ccc(Cl)cc1	15%[15.4 µM]	1.7	2	·	9%	-1.1

The list goes on.
SMILES	gsp ag	TRPML1 agonist	TRPML1 inh	ClpP mod	gsp antagonist	Menin-MLL FL inh
Cc1ccc(-c2cn3c(n2)sc2cc(C(=O)N4CCCCC4)ccc23)cc1	·	0.5	15	25µM*	·	·
Cc1ccc(CNS(=O)(=O)c2cnc(N)nc2)cc1	·	-0.5	-11	-0.8%	·	·
c1ccc(Oc2ccccn2)cc1	5%	-0.7	5	·	17%	·
O=C(COC(=O)COc1ccc(Cl)cc1)NCc1ccc2c(c1)OCO2	0%	-0.2	-1	·	14%	·
CCCC(=O)N1c2ccccc2C(=C2SC(C(=O)OC)=C(C(=O)OC)S2)C(=S)C1(C)C	5%	-1.3	-1	1.3%	-5%	0.4
COc1ccc(NC(=O)c2ccc(Cl)cc2)c[n+]1[O-]	-3%[15.4 µM]	-0.5	-15	0.6%	9%	2.4
CCOC(=O)C1CCCN(C(=O)CCn2nnnc2CN2CCOCC2)C1 (stereo not drawn)	?	0.5	-17	-2.0%	-14%	3.4
OCCNC(=S)c1ccccc1	3%	2.7	61	3.0%	7%	0.9
COc1ccc(S(=O)(=O)N2CCOC2CNC(=O)C(=O)NCCN(C)C)cc1 (stereo not drawn)	-8%	-0.5	8	1.6%	-7%	·
COC(=O)c1ccc(N2C(=O)CC(N(C)CCc3ccc(OC)c(OC)c3)C2=O)cc1 (stereo not drawn)	?	-0.2	-4	-4.5%	4%	5.8
O=C(Nc1cccc2c1CCCC2)c1ccco1	8%	0.4	5	2.1%	0%	2.3
Nc1cc(=O)nc(SCC(=O)NCc2ccccc2)n1CCc1ccccc1	?	-0.3	-8	-15%	6%	1.0
COc1ccc2[nH]c(=O)c(CN(C(C)=O)c3cc(C)ccc3C)cc2c1	-73%[inhibitor]	-0.2	8	3.8%	·	·
COc1ccc(Oc2ccc(/C=N/NC(=O)c3cccnc3)cc2[N+](=O)[O-])cc1	11%[15.4 µM]	-0.5	4	·	-19%	-5.7
O=c1ccc2cc(S(=O)(=O)N3CCCC3)ccc2[nH]1	·	0.5	0	-7.2%	·	·
Cn1c(CNC(=O)c2ccccc2F)nnc1SCCOc1ccccc1	-2%[15.4 µM]	-0.8	-9	0.8%	2%	-7.1
Cc1ccc(S(=O)(=O)Nc2ccc(Cl)cc2C(=O)c2ccccc2)cc1	18%	5.4	2	-2.8%	?	3.9
CC1(C)CC(=O)c2cc(OCC(=O)NCCCN3CCN(c4ccccc4F)CC3)ccc2O1	14%	0.0	-3	?	6%	2.8
O=C1NN(c2cccc(Br)c2)C(=O)/C1=C\c1ccc(N2CCOCC2)cc1	26%	0.4	-3	-1.5%	-3%	20
CCCC(=O)NC(c1ccccc1)c1c(O)ccc2ccccc12 (stereo not drawn)	-16%	0.6	5	4.7%	-27%	-1.5
O=C(NCCc1nnc2ccc(NCc3cccnc3)nn12)c1ccccc1F	?	-0.9	3	-17%	18%	-1.4
N#CCC(=O)Nc1ccc(C(=O)OCC(=O)c2ccc3c(c2)NC(=O)CO3)cc1	11%	1.8	-17	0.3%	1%	·
COc1ccc(CCNS(=O)(=O)c2ccc3c(c2)CCCC3)cc1OC	-23%	-0.4	-3	-2.9%	-12%	·
COc1ccc(CNC(=O)CNS(=O)(=O)c2cccc(C#N)c2)cc1OC	-18%[15.4 µM]	-0.7	6	·	-4%	-6.0
O=C(C1CCN(S(=O)(=O)N2CCC3(CC2)OCCO3)CC1)N1CCCCC1	-9%[15.4 µM]	-0.2	7	0.9%	1%	1.1
CC(C)(C)n1nnnc1CN1CCN(C2CCCC2)CC1	-3%	0.9	4	1.4%	4%	2.3
O=C(COC(=O)c1ccc(Cl)nc1)NCc1ccc(F)cc1	-1%[15.4 µM]	0.6	9	-0.6%	3%	·
COc1ccc(NC(=O)COC(=O)CNC(=O)COc2ccccc2)cc1OC	?	-0.2	-29	-3.5%	5%	·
O=S(=O)(c1ccc(F)cc1)N1CCC(c2nc3ccccc3[nH]2)CC1	-2%[15.4 µM]	-0.5	-4	-0.3%	-25%	·
Nc1nonc1-n1nnc(C(=O)N/N=C/c2cccnc2)c1CSC1=NCCS1	6%[15.4 µM]	0.3	-12	·	?	-2.0
COc1ccc(-c2cc(=O)oc3cc(OCc4nn[nH]n4)ccc23)cc1	11%	-1.2	-11	-26%	-24%	1.9
Clc1ccccc1CSc1cc2c(nn1)-c1ccccc1CC2	1%	2.4	-2	-1.9%	-7%	3.3
CC(=O)N1CCN(CC(=O)Nc2c(Cl)ccc(C)c2Cl)CC1	?	0.6	-5	·	3%	-3.6
Cc1ccc2c(CC(=O)Nc3cc(C(F)(F)F)ccc3Cl)coc2c1C	·	0.2	0	-0.3%	·	·
CN(c1ccc(F)cc1)S(=O)(=O)c1ccc(Cl)c(C(=O)NCC2(N3CCOCC3)CCCCC2)c1	-7%	3.0	-13	-0.6%	?	·
COc1ccc(NC(=O)/C(N=Nc2ccc(Cl)c(S(=O)(=O)Nc3ccc(Cl)cc3)c2)=C(\C)O)cc1	-1%	-0.4	-11	·	-5%	·
COCCNC(=O)Cn1nc(-c2ccccc2OC)ccc1=O	?	0.3	-11	-2.0%	-1%	1.1
O=C(Oc1ccccc1)N1CCN(c2ccc(F)cc2)CC1	19%	-0.4	33	-1.1%	0%	2.3
O=C(Cc1ccsc1)NNC(=O)c1ccc(F)cc1	9%[15.4 µM]	0.7	8	-3.6%	-6%	·
CC(C)Cc1nnc(NC(=O)CC(C)c2ccccc2)s1 (stereo not drawn)	-3%	0.7	-16	1.5%	9%	0.0
CCOc1ccccc1NC(=O)Cn1c(=O)n(Cc2ccccc2)c(=O)c2c1c1cc(C)ccc1n2C	·	0.0	-10	?	·	·
O=C(Cn1cnc2c(oc3ccccc32)c1=O)N1CCCc2ccccc21	14%	-0.3	11	1.8%	4%	1.2
CC[C@@]12C(=O)N(c3cccc(C)c3)C(=O)N1[C@H](c1ccc(OC)cc1)[C@@H]1C(=O)N(C(C)(C)C)C(=O)[C@@H]12	·	-0.7	7	-0.1%	7%	0.3
COc1ccc(/C=C(\C#N)C(=O)Nc2cccc3ncccc23)cc1OC	-30%[inhibitor]	-1.0	-1	-12%	-9%	2.3
CC(C)(C)c1ccc(-c2nc3cc(NC(=O)c4cc5ccccc5o4)ccc3o2)cc1	·	-0.6	-3	-7.0%	·	·
CCC(=O)N(Cc1cc(=O)[nH]c2ccccc12)c1ccccc1	22%[15.4 µM]	1.8	-10	·	-4%	7.0
O=C(NCc1ccon1)C1CCC(=O)N(CCc2ccc(Cl)cc2)C1 (stereo not drawn)	-7%[15.4 µM]	0.1	3	-7.7%	-2%	2.7
COc1cc2c(cc1OC)CN(C(=O)CCNS(=O)(=O)c1ccc(Br)cc1)CC2	-78%[inhibitor]	-0.8	-15	-1.1%	-12%	·
Cc1nnc(SC(C)C(=O)Nc2ccc3ccccc3c2)n1C (stereo not drawn)	-2%	-0.3	-3	-1.4%	11%	·
Cc1ccc(S(=O)(=O)Nc2cccc3cccnc23)cc1	-1%[15.4 µM]	1.7	-5	?	-9%	-2.1&0.2

Next section
SMILES	gsp ag	TRPML1 agonist	TRPML1 inh	ClpP mod	gsp antagonist	Menin-MLL FL inh
CC(C)(C)c1ccc(C(=O)N2CCNCC2)cc1	-1%	0.9	32	-0.9%	12%	-1.9
COCCNC(=O)C12CC3CC(C1)CC(c1ccccc1)(C3)C2	7%	-0.6	-7	·	9%	0.2
O=C1[C@@H](Oc2ccccc2)[C@@H](c2ccccc2)N1c1cccnc1	·	-0.7	8	-0.4%	-2%	·
CCOc1ccc(NC(=O)CN(C)C(=O)c2c(-c3ccccc3Cl)noc2C)cc1OCC	-9%	2.1	17	-3.0%	-13%	·
COc1ccccc1N1CCN(C(=O)c2ccc3nc[nH]c3c2)CC1	5%[15.4 µM]	-0.4	6	0.1%	15%	6.8
COc1ccc(C2Nc3ccccc3NC3=C2C(=O)CC(C)(C)C3)cc1OC (stereo not drawn)	-32%[inhibitor]	-0.6	-13	·	-4%	-1.7
CC1=C(C(=O)OCc2ccccc2)C(c2ccc([N+](=O)[O-])cc2)NC(=O)N1C (stereo not drawn)	-2%	0.3	3	1.2%	-20%	2.7
CCS(=O)(=O)N1CCc2cc(C(=O)Nc3ccc(Br)cc3F)ccc21	·	-0.1	2	-2.3%	·	·
S=C(NCc1ccccc1)NCc1cccc(Cl)c1	2%	2.4	-4	0.1%	-4%	·
